# TRPML1 agonist – agonists of human TRPML1 channel | TRPML1-expressing cells, Ca2+ dye fluorescence, FDSS; host cell line not named in the record; reference of the full effect not given here | activation, % (test concentration not listed) | actives 0.12% (n = 410,000) | AID 624414; in the data active = activation above about 50%; inconclusive = about 30% to 50%; inactive = below about 30%; note: 0% is about no effect; the text of the record puts the active cut at 80%
# Target sequence (Q9GZU1 whole entry, looked up): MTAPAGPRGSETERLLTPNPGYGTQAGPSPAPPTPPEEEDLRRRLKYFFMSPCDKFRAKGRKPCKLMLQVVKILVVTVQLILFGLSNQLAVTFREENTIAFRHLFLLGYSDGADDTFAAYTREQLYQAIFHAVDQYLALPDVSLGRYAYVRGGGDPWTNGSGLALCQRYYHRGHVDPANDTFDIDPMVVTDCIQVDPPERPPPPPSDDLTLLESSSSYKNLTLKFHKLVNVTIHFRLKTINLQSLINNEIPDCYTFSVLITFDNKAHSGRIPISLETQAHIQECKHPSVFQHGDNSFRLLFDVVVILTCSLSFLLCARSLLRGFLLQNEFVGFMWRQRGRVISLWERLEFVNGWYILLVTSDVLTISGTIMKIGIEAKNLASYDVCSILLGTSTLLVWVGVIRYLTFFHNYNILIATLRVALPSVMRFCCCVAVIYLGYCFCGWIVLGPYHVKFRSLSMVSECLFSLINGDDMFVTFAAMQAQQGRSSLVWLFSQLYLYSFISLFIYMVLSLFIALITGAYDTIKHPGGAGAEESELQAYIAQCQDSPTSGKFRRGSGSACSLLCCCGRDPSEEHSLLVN
#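 In this qHTS format, compounds were pin-transferred onto Ca8-dye-loaded TRPML1-DL cells induced with Tet overnight, and intracellular Ca2+ fluorescence was recorded kinetically for 110 s after a 10 s baseline. A subsequent 4uM final 54-4 (EC80) addition followed by a second 110 s read served as the antagonist phase.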
# TRPML1 inh – human mucolipin-1 channel inhibition. activity change, negative = inhibition, % (test concentration not listed). TRPML1-inducible cells, Ca2+ dye fluorescence, FDSS; stronger effect = lower value; inhibition of EC80 agonist-evoked calcium signal. actives 0.02% (n = 390,000). Q9GZU1; in the data active means activity change below about -50%; inconclusive means about -30% to -50%; inactive means above about -30%;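 note: stimulus is agonist 54-4 at its EC80 concentration; % is set by controls: 0 for no effect and ±100 for the full control effect; compound concentration not given in the record; the text of the record puts the active cut at -80%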
#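 Calcium fluorescence in TRPML1-DL cells induced overnight with Tet: a 110 s read after compound pin addition, then a 110 s antagonist read after challenge with 54-4 at 4 uM final (EC80).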
# D2 potentiator – potentiates the human D2 dopamine receptor allosterically. P14416. DiscoveRx D2 beta-arrestin cells, luminescence, 90 min; 100% = 57 uM dopamine signal. potentiation, % (test concentration not listed). actives 0.23% (n = 360,000). AID 624464; active = potentiation of 50% or more; inconclusive = 30% to 50%; inactive = 30% or less;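 note: compound concentration not given in the record; tested on top of an EC20 dose of dopamine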
# Target sequence (P14416 whole entry, looked up): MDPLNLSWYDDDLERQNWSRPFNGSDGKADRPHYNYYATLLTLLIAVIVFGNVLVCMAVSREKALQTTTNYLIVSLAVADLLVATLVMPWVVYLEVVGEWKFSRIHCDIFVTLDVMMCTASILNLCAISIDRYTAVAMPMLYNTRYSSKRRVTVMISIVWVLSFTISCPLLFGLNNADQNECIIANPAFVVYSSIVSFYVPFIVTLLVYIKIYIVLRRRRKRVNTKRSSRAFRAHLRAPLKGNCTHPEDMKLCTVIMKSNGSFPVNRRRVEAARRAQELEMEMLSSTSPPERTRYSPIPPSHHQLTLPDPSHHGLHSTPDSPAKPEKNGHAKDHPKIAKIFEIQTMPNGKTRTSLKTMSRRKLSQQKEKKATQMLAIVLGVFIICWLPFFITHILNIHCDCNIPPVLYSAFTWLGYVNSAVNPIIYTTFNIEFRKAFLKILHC
#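 PathHunter beta-arrestin assay in DiscoveRx D2 cells. Compounds were added with an EC20 of dopamine (50 nM final) for 90 min at 37 deg C. Luminescence was read 1 h after detection reagent, with 57 uM dopamine as the EC100 control.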
# Six1-Eya2 blk – Six1/Eya2 interaction inhibition; Q15475+O00167; AlphaScreen GST-Six1/His-Eya2 binding, biochemical; stronger effect = lower value; control for the full effect not named in the record; activity change, % (test concentration not listed); actives 0.56% (n = 360,000); AID 651725; in the data active = activity change below about -65%; inconclusive = about -30% to -65%; inactive = above about -30%; note: % is set by controls: 0 for no effect and ±100 for the full control effect; compound concentration not given in the record
#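 AlphaScreen luminescence read after one hour at 37 °C in darkness. Pin-transferred compounds met GST-Six1 and His-Eya2 protein (5X stock 250 nM/500 nM) plus glutathione donor and Ni-chelate acceptor beads (5X, 50 ug/mL).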
# TRPV1 potentiator – human TRPV1 potentiation; Q8NER1; TRPV1-expressing cells, Fluo-8 calcium influx, capsaicin EC20 potentiation; host cell line not named in the record; control for the full effect not named in the record; potentiation, % at 8.33 µM; actives 0.02% (n = 320,000); active means potentiation above 80%; inconclusive means 30% to 80%; inactive means below 30%; note: 0% is about no effect
#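 Fluo-8 calcium influx in TRPV1-expressing cells, kinetic read (ex 480/em 520 nm). Compound added and read 3 min for agonist activity, followed by capsaicin at EC20 final and 2 min further read for enhancement.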
# CtBP-E1A inh – inhibitors of CtBP/E1A interaction | AlphaScreen GST-E1A/His-CtBP binding, 1536-well; stronger effect = lower value; control for the full effect not named in the record | activity change, % (no concentration beside the values) | actives 0.49% (n = 340,000) | AID 651724; in the data active means activity change below about -65%; inconclusive means about -30% to -65%; inactive means above about -30%; note: % is set by controls: 0 for no effect and ±100 for the full control effect; compound concentration not given in the record
#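 Homogeneous bead-based format: GST-tagged E1A captured on glutathione donor beads, His-tagged CtBP on nickel acceptor beads; compounds precede bead addition by 2 h at 37 °C.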
# * = called active by the depositor; ? = inconclusive; · = not tested or not shown; & = joins results of further samples.
SMILES,TRPML1 agonist,TRPML1 inh,D2 potentiator,Six1-Eya2 blk,TRPV1 potentiator,CtBP-E1A inh
Cc1ccc(S(=O)(=O)CC(C)(O)CS(=O)(=O)c2ccc(C)cc2)cc1,0.3,15,-3,-3,1,9
COc1ccccc1C(=O)Nc1cc(C)on1,-0.2,-9,-5,9,2,9
COc1ccc(C(=O)C2CCCN(C(=O)Cn3cncn3)C2)cc1OC (configuration not stated),-0.3,10,22,1,4,8
COc1cccc(NC(=S)N2CCN(C(c3ccccc3)c3ccccc3)CC2)c1,2.0,-14,0,-6,2,0
Cc1cccc(CSc2ccc3nnc(-c4cccs4)n3n2)c1,0.9,13,-3,4,-3,·
O=C(Cn1c(=O)oc2cc(S(=O)(=O)NCc3ccccc3)ccc21)NCc1ccco1,0.2,-1,-1,0,26,0
CSc1ccc(S(=O)(=O)Nc2ccc3c(c2)OCCO3)cc1,1.3,6,-2,7,-5,22
Cc1c(NC(=O)C(C)OC(=O)c2ccc(Cl)nc2)c(=O)n(-c2ccccc2)n1C (configuration not stated),0.2,3,-14,5,-3,6
Cc1c(C)n(CC(O)CNc2ccccc2)c2ccccc12 (configuration not stated),4.5,-25,7,-21,13,-3
CCCCn1ccc(=O)c2c(C(F)(F)F)nccc21,-0.4,19,-2,5,-3,-4
COC(=O)c1cc(OC)c(OC)c(OC)c1N,-0.2,0,-20,0,7,6
O=C(O)Cc1ccc(NC(=O)c2ccc3c(c2)C(=O)N(Cc2ccccc2)C3=O)cc1,0.4,-9,-9,-14,·,1
COc1ccc(CCNC(=O)Cn2c(=O)n(-c3ccc(C)c(F)c3)c(=O)c3sccc32)cc1OC,2.6,-1,4,6,8,9
O=C(NCCN1CCCCC1)c1ccc(/C=N/O)nc1,-0.5,3,-2,?,-13,·
O=C(NCCCl)Nc1ccccc1NS(=O)(=O)c1cccs1,0.4,-9,-17,1,·,0
CN(C)c1ccc(NC(=O)c2cnsn2)cc1,-0.7,-9,-17,-4,-17,3
Cc1ccc(CNn2cnnc2SCC(=O)NC(C)(C)C)cc1,-0.6,14,-3,1,2,0
CN=C1S/C(=C\c2ccc(SC)cc2)C(=O)N1C,1.3,1,-2,2,2,5
COc1ccccc1NC(=O)CC(c1ccc(F)cc1)c1ccco1 (configuration not stated),-0.2,24,-4,-20,-2,2
O=C(NCc1ccccc1)C(c1cccnc1)N(C(=O)c1csnn1)c1ccccc1 (configuration not stated),0.5,-15,-4,7,1,-1

# Retrieved by compound from above, 5 records:
SMILES,TRPML1 agonist,TRPML1 inh,D2 potentiator,Six1-Eya2 blk,TRPV1 potentiator,CtBP-E1A inh
O=C(NCc1ccccc1)C(c1cccnc1)N(C(=O)c1csnn1)c1ccccc1 (configuration not stated),0.5,-15,-4,7,1,-1
CSc1ccc(S(=O)(=O)Nc2ccc3c(c2)OCCO3)cc1,1.3,6,-2,7,-5,22
COc1ccccc1C(=O)Nc1cc(C)on1,-0.2,-9,-5,9,2,9
O=C(O)Cc1ccc(NC(=O)c2ccc3c(c2)C(=O)N(Cc2ccccc2)C3=O)cc1,0.4,-9,-9,-14,·,1
Cc1c(C)n(CC(O)CNc2ccccc2)c2ccccc12 (configuration not stated),4.5,-25,7,-21,13,-3

# The results go on:
SMILES,TRPML1 agonist,TRPML1 inh,D2 potentiator,Six1-Eya2 blk,TRPV1 potentiator,CtBP-E1A inh
Cc1cccc(OCCNC(=O)CCNS(=O)(=O)c2ccc3ccccc3c2)c1,4.2,0,-20,-1,10,1
CCC(C)C(=O)N1c2ccccc2C(=C2SC(C(=O)OC)=C(C(=O)OC)S2)C(=S)C1(C)C (configuration not stated),1.4,29,-11,-80*,12,-83*
COC(=O)N[C@H](c1ccccc1)[C@@]1(C)C[C@@H]1[C@@H](C)C(=O)Nc1ccc2ccccc2c1,0.0&1.7,37&-10,-18,2,·,·
O=C(c1ccc(Cl)cc1)N1CCN(S(=O)(=O)/C=C/c2ccccc2)CC1,1.2,11,1,10,-12,23
Cc1sc2nc(COC(=O)C(NC(=O)c3ccc(Cl)cc3Cl)C(C)C)[nH]c(=O)c2c1C (configuration not stated),0.6,-10,-30,-6,?,-2
COC(=O)CC1c2ccccc2S(=O)(=O)N1Cc1ccccc1 (configuration not stated),1.0&-0.2,-6&-17,1,3,-7,·
CN(CC(=O)NC1(C)CCS(=O)(=O)C1)S(=O)(=O)c1ccc(Cl)cc1 (configuration not stated),-0.1,20,-5,9,8,2
CCn1cc(C(=O)O)c(=O)c2cc(F)c(N3CCN(C(=S)Nc4ccc(OC)cc4)CC3)cc21,1.0,1,-3,1,-14,0
CC1(c2ccc3ccccc3c2)NC(=O)N(CC(N)=O)C1=O (configuration not stated),0.1,10,-6,4,13,0
COC(=O)C(C)Oc1ccc(-c2nccc(-c3cccs3)n2)cc1 (configuration not stated),2.9,-8,-3,23,-7,9
Cn1c(SCC(=O)N2CCc3ccccc32)nnc1-c1ccc(S(=O)(=O)N2CCCC2)cc1,4.0,-14,-16,0,-2,25
CC1CCCCN1CCCNC(=O)c1nn(C)c2c1CSc1ccccc1-2 (configuration not stated),-0.1,8,-28,6,6,-2
O=C(COC(=O)CSc1ccc2ccccc2c1Br)NC1CC1,-0.1,5,5,4,-9,2
COc1ccc(NC(=O)C2CC2)cc1OC1CCCC1,-1.5,17,-6,-3,0,2
COc1ccc(C(=O)NCC(=O)OCc2ccc(Br)cc2)cc1,-0.6,0,1,5,7,7
Cc1c(OCC(=O)Nc2cccnc2)ccc2c3c(c(=O)oc12)CCC3,0.7,3,-4,1,-1,·
O=C(Cc1ccccc1F)Nc1nc(-c2ccc(F)c(F)c2)cs1,1.0,-1,1,1,-10,15
CC(C)Nc1nc(Oc2ccc(=O)n(-c3ccccc3)n2)nc(N(C)C)n1,1.5,25,0,2,-12,-13
CCCCCCc1nnc(N)s1,2.3,-6,-6,2,-1,3
COC(=O)Cc1nc2ccccc2[nH]1,-0.6,-14,-19,5,9,-5

# In the list so far, 5 have a thiophene ring, fused or not.
SMILES,TRPML1 agonist,TRPML1 inh,D2 potentiator,Six1-Eya2 blk,TRPV1 potentiator,CtBP-E1A inh
Cc1cccc(CSc2ccc3nnc(-c4cccs4)n3n2)c1,0.9,13,-3,4,-3,·
COc1ccc(CCNC(=O)Cn2c(=O)n(-c3ccc(C)c(F)c3)c(=O)c3sccc32)cc1OC,2.6,-1,4,6,8,9
O=C(NCCCl)Nc1ccccc1NS(=O)(=O)c1cccs1,0.4,-9,-17,1,·,0
Cc1sc2nc(COC(=O)C(NC(=O)c3ccc(Cl)cc3Cl)C(C)C)[nH]c(=O)c2c1C (configuration not stated),0.6,-10,-30,-6,?,-2
COC(=O)C(C)Oc1ccc(-c2nccc(-c3cccs3)n2)cc1 (configuration not stated),2.9,-8,-3,23,-7,9

# The results go on.
SMILES,TRPML1 agonist,TRPML1 inh,D2 potentiator,Six1-Eya2 blk,TRPV1 potentiator,CtBP-E1A inh
CCc1sc(C(=O)Nc2ccc3nc(C)sc3c2)cc1C,3.8,-2,-39,-23,·,-23
Cn1c(Oc2ccc(Cl)cc2)c(C=O)c2ccccc21,-0.6,21,-29,19,-4,14
COc1ccc(Nc2nc(Cl)nc(Nc3ccc(OC)cc3OC)n2)c(OC)c1,0.7,9,-4,-2,-24,·
Cn1c(CN2CCCCC2)nc2cc(NC(=O)c3ccccc3)ccc21,-0.7,0,-3,-2,24,-4
CO/N=C\Cc1oc(=O)c(NC(=O)c2ccccc2)cc1C(=O)OC,-0.5,8,-11,-10,-2,-2
Cc1c(C(=O)N2CCCC(C)C2)sc2ncnc(N3CCCCC3C)c12 (configuration not stated),0.4,-3,1,2,-13,0
CCC(C)(C)NC(=O)c1ccc(Sc2nncn2C)c([N+](=O)[O-])c1,0.2,34,5,25,-3,0
COc1cc(C2CC(=O)Nc3ccccc3S2)cc(OC)c1OC (configuration not stated),-1.3,2,-7,-2,·,0
Cc1ccc(CN2CCN(C(=O)CCC(=O)Nc3nnc(C(C)C)s3)CC2)c(C)c1,-1.1,-16,-21,-2,-19,1
CCCn1c2ccccc2c2cnn(CC(=O)O)c(=O)c21,-0.6,1,-8,6,0,-1
S=C(NCc1cccnc1)Nc1cc(Cl)cc(Cl)c1,0.3,9,-27,-3,-5,·
Cc1ccc(SCCNC(=O)CN2C(=O)c3ccccc3S2(=O)=O)cc1,1.0,-2,-17,6,-20,10
Cc1ccccc1CC(=O)N1CCN(S(=O)(=O)c2cccs2)CC1,-0.5,-2,2,0,-4,3
CC1=C(C(=O)OC(C)C)C(c2ccccc2Cl)CC(=O)N1 (configuration not stated),1.1,15,-3,2,3,2
COc1ccc(C(=O)Cn2c(=O)c(CCC(=O)O)nn3c4ccccc4nc23)cc1OC,1.4,7,-8,0,-3,0
Cc1sc(NC(=O)CCl)c(C(=O)c2ccccc2)c1C,-0.2,29,-13,-18,19,-13
O=C(COc1cccc(NC(=O)c2ccccc2)c1)c1ccc(F)cc1,1.9,21,-7,0,-1,4
CC(=O)N1c2ccccc2S(=O)(=O)c2ccccc21,-0.1,-11,-1,6,22,6
O=S(=O)(c1cccc(Cl)c1Cl)N1CCCCC1,1.2,46,3,8,1,12
Cc1ccnc2nc(C(=O)NC3CCCc4ccccc43)nn12 (configuration not stated),-0.8,-5,-10,6,27,-7
COc1ccc(Nc2nc(C)cc(C)c2C(N)=O)cc1,4.5,9,-10,8,6,-2
Cc1ccc(N(C(=O)c2csnn2)C(C(=O)NCc2ccccc2)c2cccnc2)cc1 (configuration not stated),-0.1,21,-7,16,12,-12
COc1ccc([N+](=O)[O-])cc1NCc1cccc([N+](=O)[O-])c1,1.5,-29,-13,1,?,-4
Cc1ccccc1N1CCN(CC(=O)Nc2ccccc2C(=O)NC2CC2)CC1,-0.7,-14,-14,-3,-23,·
O=C(c1ccco1)N1CCN(Cc2nnnn2CCc2ccccc2)CC1,0.1,13,-9,8,-10,4
COc1cc(SC)ccc1C(=O)Nc1ccc2c(c1)CCC2,-0.1,-4,-10,5,-2,18
CCN1CCC2(CC1)Oc1c(OC)cccc1C1CC(c3cccnc3)=NN12 (configuration not stated),0.2,-6,-1,-6,0,-1
C=CCOc1ccc(CN(C)CC(=O)N(CC(C)C)c2c(N)n(CC(C)C)c(=O)[nH]c2=O)cc1,-0.6,25,-8,-2,14,3
O=C(Nc1nccs1)C1CCCN1S(=O)(=O)c1ccc(F)cc1 (configuration not stated),-0.3,14,-4,-11,-3,-5
CC(C)(C)NC(=O)/C=C/c1ccc(C(F)(F)F)cc1,-0.3,-16,-5,15,1,4
O=C(O)c1cccc(S(=O)(=O)N(Cc2ccccc2)c2ccc(Cl)cc2)c1,-0.7,-8,5,2,21,7
COCCNC(=O)C1(C)CCCN(C(=O)c2c(-c3ccccc3)noc2C)C1 (configuration not stated),0.0,0,-14,4,·,2
O=C(O)c1ccc(Nc2nc(-c3ccc([N+](=O)[O-])cc3)nc3ccccc23)cc1,1.5,4,-1,-30,2,·
CCOc1ccc(OCCCC(=O)ON=C(N)c2ccccc2C)cc1,-1.1,2,16,25,6,·
CCOC(=O)N1CCN(Cc2nnc(-c3ccccc3C)o2)CC1,-0.5,-13,-6,3,5,0
O=C(O)CSCC(=O)N(c1ccccc1)c1ccccc1,-0.5,-10,-28,-16,0,2
COc1ccc(Nc2cc(C)nc3ncnn23)cc1Cl,1.1,-15,-2,19,5,0
O=C(CSc1nnc(-c2ccco2)n1Cc1ccco1)NCc1ccccc1,-0.3,-3,10,-2,4,-4

# Compound activity deposited in PubChem by National Center for Advancing Translational Sciences (NCATS).

# Compounds were not picked by outcome; overall some 0.95% were active at least once.
